# GIV Gai3 FP = GIV-Galpha-i interaction inhibition. P08753. AID 1224905. Galpha-i3/FITC-GIV peptide fluorescence polarization, 90 min; hits give low values; scaled: aluminum fluoride 0%, vehicle 100%. 210,000 compounds, 0.42% hits. percent of control (FP), % (test concentration not listed);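 active = replicate mean at 85% of control or lower, very high polarization wells dropped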;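 note: wells of about 15 µL received 100 nL stock; the first replicate is given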
# Target sequence (P08753 whole entry, looked up): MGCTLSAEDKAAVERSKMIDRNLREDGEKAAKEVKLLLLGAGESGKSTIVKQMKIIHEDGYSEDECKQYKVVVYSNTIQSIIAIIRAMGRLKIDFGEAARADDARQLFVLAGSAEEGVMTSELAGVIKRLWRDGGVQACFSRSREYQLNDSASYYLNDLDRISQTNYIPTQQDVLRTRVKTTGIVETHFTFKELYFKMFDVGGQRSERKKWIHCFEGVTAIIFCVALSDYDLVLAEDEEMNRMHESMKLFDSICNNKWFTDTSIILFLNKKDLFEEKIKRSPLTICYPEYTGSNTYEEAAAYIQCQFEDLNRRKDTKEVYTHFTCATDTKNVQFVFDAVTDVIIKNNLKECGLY
# * = called active by the depositor.
SMILES,GIV Gai3 FP
CCOC(=O)c1sc2nc(C)cc(COC)c2c1NC(=O)c1ccccc1,110
CCOc1ccc(NC(=O)CN2C(=O)/C(=C3\SC(N4CCOCC4)=NC3=O)c3ccccc32)cc1,107
COc1ccc(N2CCN(S(=O)(=O)c3ccc(F)c(C(=O)Nc4ccccc4Br)c3)CC2)cc1,107
O=C(c1cc2ccccc2oc1=O)N1CCc2ccccc2C1,109
COC(=O)CN1C(=O)C2(C(C#N)=C(N)Oc3n[nH]c(-c4ccc(Cl)c(Cl)c4)c32)c2ccccc21 (configuration not stated),116
CCCOc1ccc(-c2nn3c(=O)c(NC(=O)c4ccccc4C)cnc3o2)cc1,111
CCCNc1nc2ccccc2nc1C(=O)Nc1ccc2c(c1)c1ccccc1n2CC,99
O=C(NCCc1csc(-c2cccs2)n1)C1CCN(C(=O)Cc2cccs2)CC1,104
CCc1cc(C2CCCN2C(=O)NCC(C)C)on1 (configuration not stated),102
CCCSc1nnc2c3ccccc3n(C)c2n1,107
Nc1c(C(=O)N2CCCCC2)sc(=S)n1-c1ccccc1,105
Cc1cc(C)cc(-c2cc3nc(C)cc(N4CCC(C(=O)NCCC(C)C)CC4)n3n2)c1,107
CCOc1ccc(N2C(=O)/C(=C\c3cc(Br)cs3)S(=O)(=O)C2c2cccc([N+](=O)[O-])c2)cc1 (configuration not stated),106
NC(=O)CSc1nnc2c3ccccc3nc(-c3ccccc3)n12,104
O=C(c1ccc2ccccc2c1)N1CCN(c2cccc(Cl)c2)CC1,110

# Part of the list above in order of number of heavy atoms, low to high.
SMILES,GIV Gai3 FP
CCCSc1nnc2c3ccccc3n(C)c2n1,107
CCc1cc(C2CCCN2C(=O)NCC(C)C)on1 (configuration not stated),102
Nc1c(C(=O)N2CCCCC2)sc(=S)n1-c1ccccc1,105
O=C(c1cc2ccccc2oc1=O)N1CCc2ccccc2C1,109
NC(=O)CSc1nnc2c3ccccc3nc(-c3ccccc3)n12,104
O=C(c1ccc2ccccc2c1)N1CCN(c2cccc(Cl)c2)CC1,110
CCOC(=O)c1sc2nc(C)cc(COC)c2c1NC(=O)c1ccccc1,110
O=C(NCCc1csc(-c2cccs2)n1)C1CCN(C(=O)Cc2cccs2)CC1,104
CCCOc1ccc(-c2nn3c(=O)c(NC(=O)c4ccccc4C)cnc3o2)cc1,111
Cc1cc(C)cc(-c2cc3nc(C)cc(N4CCC(C(=O)NCCC(C)C)CC4)n3n2)c1,107
CCOc1ccc(N2C(=O)/C(=C\c3cc(Br)cs3)S(=O)(=O)C2c2cccc([N+](=O)[O-])c2)cc1 (configuration not stated),106
COc1ccc(N2CCN(S(=O)(=O)c3ccc(F)c(C(=O)Nc4ccccc4Br)c3)CC2)cc1,107
CCOc1ccc(NC(=O)CN2C(=O)/C(=C3\SC(N4CCOCC4)=NC3=O)c3ccccc32)cc1,107

# Additional structures:
SMILES,GIV Gai3 FP
C=CCn1c(=O)c(=O)n(Cc2ccc(C(=O)N3CCOCC3)cc2)c2ccccc21,105
O=C(c1ccccc1Cl)N1c2ccccc2Sc2ccccc21,106
CCN(CC)CCCNS(=O)(=O)c1cc(-c2cc(C)no2)cs1,102
Cc1onc(-c2ccccc2Cl)c1C(=O)Nc1c2c(nn1-c1ccc(F)cc1)CS(=O)(=O)C2,109
COc1cc(C2C(C#N)=C(N)N(c3ccc(Cl)cc3)C3=C2C(=O)CCC3)cc(OC)c1OC (configuration not stated),122
Cc1c(C(=O)NCCCN2CCOCC2)sc2ncnc(N3CCc4ccccc4C3)c12,114
CC(=O)Nc1ccc(N=c2ssc3c2-c2ccccc2NC3(C)C)cc1,106
O=C(Cn1c(=O)c2cccnc2n(-c2ccccc2)c1=O)Nc1cccc(Br)c1,107
Cc1ccc(-c2cn(/N=C/c3ccccc3)c(NC(=O)Nc3ccc(F)cc3F)n2)s1,105
Cn1nc(-c2nc(C3CC3)no2)c2c1CCN(S(=O)(=O)c1ccccc1Cl)C2,104
CCN(CCCNC(=O)C1CCCN(C(=O)c2cccc(Cl)c2)C1)c1ccccc1 (configuration not stated),105
Cc1sc(-c2cc(C(F)(F)F)on2)cc1S(=O)(=O)N1CCC2(CC1)OCCO2,104
N#Cc1cc(Sc2nc3ccccc3s2)c(N2CCOCC2)cc1C#N,110
CCOC(=O)C1CCCN(S(=O)(=O)c2cc(-c3ccc(=O)[nH]n3)cc(C)c2C)C1 (configuration not stated),98
O=C(CCn1c(N2CCCC2)nc2ccsc2c1=O)NCCc1c[nH]c2ccccc12,100
CCOc1ccc(C(=O)Nc2cccc(-c3nc4cc(C)cc(C)c4o3)c2)cc1Br,104
COc1ccc(N2C(=O)c3ccccc3NC2c2ccc(OC)c(Cn3cc([N+](=O)[O-])cn3)c2)cc1 (configuration not stated),102
Nc1nc(N2CCN(Cc3ccc4c(c3)OCO4)CC2)ncc1S(=O)(=O)c1ccc(Cl)cc1,107
O=C1c2cccc3c(Br)c([N+](=O)[O-])cc(c23)C(=O)N1c1cccc([N+](=O)[O-])c1,104
O=C(Nc1ccc(Br)cn1)c1nc2ccccc2nc1N1CCCCC1,111
O=C(CSc1ccc2c3c(cccc13)C(=O)c1ccccc1-2)Nc1ccccc1,99
CCOc1ccc(C2C(N3C(=O)c4c(Cl)c(Cl)c(Cl)c(Cl)c4C3=O)C(=O)N2c2cccc(OC)c2)cc1 (configuration not stated),105
CCC(Sc1nc(Nc2ccc(F)c(F)c2)c2ccccc2n1)C(=O)NCCCOC (configuration not stated),105
CCSCCNC(=O)c1nc(-n2cnnc2)ccc1Br,106
CCCC(=O)n1c2ccccc2c2nc3ccccc3nc21,106
COc1ccc(OC)c(NC(=O)c2cc3ccc(O)cc3oc2=Nc2ccc(C(=O)O)cc2)c1,114
CC(C)(O)/C=C1/Oc2ccccc2C1N1CCCCC1 (configuration not stated),110
CNC(=O)c1cc(CN2CCCC(C)C2)on1 (configuration not stated),100
NS(=O)(=O)c1ccc(CCNC(=O)CCCCCn2c(=S)[nH]c3ccc(Br)cc3c2=O)cc1,98
O=C1C2C3c4ccccc4C(c4ccccc43)C2C(=O)N1c1ccccc1[N+](=O)[O-] (configuration not stated),113
CC(=O)C1=NN(c2ccccc2)C2(S1)SC(c1ccc(Br)cc1)(c1ccc(Br)cc1)c1ccccc12 (configuration not stated),113
COc1ccc(C(=O)OCCN(C2=NS(=O)(=O)c3ccccc32)c2ccccc2)c(OC)c1,110
COc1ccc(N2CCN(S(=O)(=O)c3cc(C(=O)Nc4ccc(Br)cc4)ccc3F)CC2)cc1,101
CC(=O)Nc1ccc(S(=O)(=O)NCc2ccc3c(c2)CCN3C(=O)c2ccc(F)cc2)cc1,106
CCOC(=O)c1ccc(N2C(=O)C(=O)/C(=C(/O)c3ccc(OC)cc3)C2c2ccccc2)cc1 (configuration not stated),116
CC(=O)OC(OC(C)=O)C12C=CC(O1)C1C(=O)N(c3ccc(Cl)c(C(=O)O)c3)C(=O)C12 (configuration not stated),103
CC(=O)N[C@H]1[C@H](Oc2cccc3ccccc23)O[C@H](COC(C)=O)[C@@H](OC(C)=O)[C@@H]1OC(C)=O,112
COc1ccc(S(=O)(=O)NC2CCN(C(=O)c3cc4cc(Cl)ccc4[nH]3)CC2)cc1,102
Cc1ccc(C(=O)COC(=O)CSc2nc3ccccc3s2)c(C)c1,106
Cc1ccc(CNC2=NCCNC23CCN(S(=O)(=O)c2ccc(Cl)cc2)CC3)cc1,100
Cc1nn(-c2ccccc2)c2c1C(C(=O)c1cc3ccccc3o1)CC(=O)N2 (configuration not stated),99
CCN1CCN(S(=O)(=O)c2c(C)[nH]c(C)c2-c2nnc(C)o2)CC1,100
CC1(C)CC(=O)C(C(C2=C(O)CC(C)(C)CC2=O)c2ccc(Br)cc2)C(=O)C1 (configuration not stated),103
C/C(=N\OCc1nc2c3c(-c4ccccc4)c(-c4ccccc4)oc3ncn2n1)c1ccc(C)cc1,108
Cc1ccc(N2C(=O)C(C)SC23C(=O)Nc2ccccc23)cc1Cl (configuration not stated),108
c1ccc(-c2noc(-c3cc(N4CCOCC4)nc4ccccc34)n2)cc1,93
Cc1cccc(NC2=NC(=S)N(c3cccc(C)c3)C23CCCC3)c1,105
COC(=O)C1=C(N)N(c2ccc(S(N)(=O)=O)cc2)C2=C(C(=O)CC(C)(C)C2)C1c1cccc([N+](=O)[O-])c1 (configuration not stated),114
CCOc1cc(/C=N/NC(=O)C2C(c3ccccc3)C(C(=O)N3CCOCC3)C2c2ccccc2)ccc1O (configuration not stated),109
CC(=O)OC(OC(C)=O)C12C=CC(O1)C1C(=O)N(c3cc(C(F)(F)F)ccc3Cl)C(=O)C12 (configuration not stated),105
CCC(=O)C1=C(c2ccc(Br)cc2)N(C(=O)CC)n2c(C)nnc2S1,99
COc1cc(C2Nc3ccccc3C(=O)N2c2ccc(Cl)cc2)cc(OC)c1OC (configuration not stated),106
CCc1cc2c(-c3ccccc3)cc(=O)oc2cc1OCC(N)=O,116
O=C1C(=O)N(c2ccccn2)C(c2ccccc2)/C1=C(\O)c1ccc(Br)cc1 (configuration not stated),118
CCC(O)C(C)C1OC(=O)C(C)C(OC2CC(C)(OC)C(O)C(C)O2)C(C)C(OC2OC(C)CC(N(C)C)C2O)C2(C)CC(C)=C(O2)C1C (configuration not stated),108
CCc1ccc2c(c1)[C@H]1OCC[C@H]1C(c1ccc(C(=O)O)cc1)N2 (some centres not stated),102
CC(C)=C1C2C=CC1C1C(=O)N(c3ccc(C)c(Br)c3)C(=O)C21 (configuration not stated),116
CCn1c(SCC(=O)N2CCCC2)nnc1-c1nc(-c2ccc(OC)cc2)no1,103
O=C(Nc1ccc(N2CCC(c3ccccc3)C2)c(C(=O)O)c1)c1ccccc1Cl (configuration not stated),108
O=C1/C(=C/c2c(NCCc3ccccc3)nc3ccccn3c2=O)SC(=S)N1Cc1ccco1,125

# (next part)
SMILES,GIV Gai3 FP
O=C(Cc1cccs1)N1CCC(Nc2ncnc3c2CCC3)C1 (configuration not stated),104
OCCN1CCN(c2nc(NCc3ccccc3)c3ccccc3n2)CC1,101
CCN1/C(=c2/s/c(=C3\SC(=S)N(C4CCCCC4)C3=O)n(CC)c2=O)C=Cc2ccccc21,103
COc1ccc(C2CC(=O)NC(SCC(=O)Nc3ccc(Cl)cc3)=C2C#N)cc1 (configuration not stated),102
CCOC(=O)C1=C(N)Oc2cc(O)ccc2C1c1ccc(OC)cc1 (configuration not stated),115
Clc1cccc(Nc2ncnc3ccc(Br)cc23)c1,105
COc1ccccc1Cn1c(=S)[nH]c2cc(C(=O)N3CCN(c4ccccc4OC)CC3)ccc2c1=O,103
O=C(NC1CCCC1)c1cccc(Oc2cc(-c3ccc(F)cc3)ncn2)c1,103
Cc1ccc([N+](=O)[O-])c2cc3c(nc12)-c1ccccc1C3=O,120
CCOc1ccccc1NC(=O)c1cc([N+](=O)[O-])ccc1N1CCCCC1,120
CCOC(=O)C(=O)N1CCCc2ccccc21,114
COc1ccc(NS(=O)(=O)c2cc(-c3cc(C(F)(F)F)[nH]n3)sc2C)cc1Cl,102
O=S(=O)(NC1c2cccc3cccc(c23)C1NCc1ccco1)c1ccccc1 (configuration not stated),105
Cc1c(C(=O)Nc2ccc(Cl)cn2)sc2ncnc(N3CCCCC3C)c12 (configuration not stated),104
CC(C)(CN=C1NS(=O)(=O)c2ccccc21)CNC(=O)c1ccccc1Br,105
Cc1cc2c(cc1S(=O)(=O)N1CCCC1C(=O)NCc1ccc(Cl)cc1)OCC(=O)N2 (configuration not stated),102
Cc1sc(C)c(S(=O)(=O)Nc2cccc(F)c2)c1-c1cc(C(F)(F)F)on1,97
Cc1ccc(CNS(=O)(=O)c2ccc3c(c2)C(=O)NC3)cc1,111
CCOc1ccc(C2=NN3C(C2)c2cccc(OC)c2OC3c2cccc(Cl)c2)cc1 (configuration not stated),118
COc1ccc(NC(=O)c2nc3nc(-c4ccc(F)cc4)cc(C(F)(F)F)n3n2)cc1OC,106
COc1ccc(C2(O)CN(c3ccc(Br)cc3)C3=[N+]2CCCC3)cc1 (configuration not stated),104
Cc1ccc(CNC(=O)CSc2nc3cc(-c4ccccc4)sc3c(=O)n2C)cc1,112
CC(C)(COC(=O)c1ccc(Br)cc1)N=C1NS(=O)(=O)c2ccccc21,105
CCCc1cc(C2CCCN2S(=O)(=O)c2c(C)noc2C)no1 (configuration not stated),101
CNC(=O)CCC(=O)N1c2ccccc2NC2=C(C(=O)CC(C)(C)C2)C1c1ccco1 (configuration not stated),99
CCc1ccc(NC(=O)NCCC2CCN(S(=O)(=O)c3ccc(C)cc3)CC2)cc1,99
Fc1ccc(-c2nc3ccc(F)cc3nc2-c2ccc(F)cc2)cc1,108
Cc1ccc(CNS(=O)(=O)c2cc(-c3nc(C)cs3)sc2C)cc1,140
O=C(Nc1ccc(F)cc1)N1CCC(n2cnc3ccc(F)cc3c2=O)CC1,105
N#Cc1ccc(-c2cccnc2)nc1SCC(=O)c1ccc(Br)cc1,128
Cc1cc(=O)oc2c3c(ccc12)O/C(=C/c1cccc(O)c1)C3=O,109
Cc1cccc(N(CCOC(=O)CN2C(=O)c3ccccc3C2=O)C2=NS(=O)(=O)c3ccccc32)c1,110
O=C(NCc1ccccc1)c1cccc(-c2cc(NC3CCCCC3)ncn2)c1,103
O=C(c1ccc(Br)cc1)N1CCN(Cc2noc3ccccc23)CC1,101
O=C(Nc1cccc(F)c1)N1CCN(Cc2nc3cccnc3n2-c2ccc(F)cc2)CC1,104
CCn1cc(CN2CCC(C(=O)NCCN3CCOCC3)CC2)c2ccccc21,103
N#Cc1c(N)nc(SCc2ccccc2F)c(C#N)c1-c1cccs1,107
O=C(NCc1ccc(Br)cc1)c1ccc(-c2cccnc2)cc1,96

# A portion of the library; count on the stated rates, not on these rows.
